Screening results: PubChem, Johns Hopkins Ion Channel Center
KCNQ2 pot: KCNQ2 (rat) channel potentiation; CHO-K1 KCNQ2, FluxOR thallium flux fluorescence; active compounds read high; B-score at 10 µM; hit rate 0.54% among 310,000; AID 2239;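 active = fluorescence ratio B-score at least 3 SD of library B-scores, with initial fluorescence B-score within 3 SD, cut at about 5.3 in these data; same plate scores as AID 2156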;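 also: B-score of peak minus minimum over baseline fluorescence ratio after K+ and Tl+ stimulus; positive B-score means potentiation of KCNQ2 with more thallium influx and brighter signal; only the inactives scoring about 0 or higher are listed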
Target sequence (O88943 whole entry, looked up): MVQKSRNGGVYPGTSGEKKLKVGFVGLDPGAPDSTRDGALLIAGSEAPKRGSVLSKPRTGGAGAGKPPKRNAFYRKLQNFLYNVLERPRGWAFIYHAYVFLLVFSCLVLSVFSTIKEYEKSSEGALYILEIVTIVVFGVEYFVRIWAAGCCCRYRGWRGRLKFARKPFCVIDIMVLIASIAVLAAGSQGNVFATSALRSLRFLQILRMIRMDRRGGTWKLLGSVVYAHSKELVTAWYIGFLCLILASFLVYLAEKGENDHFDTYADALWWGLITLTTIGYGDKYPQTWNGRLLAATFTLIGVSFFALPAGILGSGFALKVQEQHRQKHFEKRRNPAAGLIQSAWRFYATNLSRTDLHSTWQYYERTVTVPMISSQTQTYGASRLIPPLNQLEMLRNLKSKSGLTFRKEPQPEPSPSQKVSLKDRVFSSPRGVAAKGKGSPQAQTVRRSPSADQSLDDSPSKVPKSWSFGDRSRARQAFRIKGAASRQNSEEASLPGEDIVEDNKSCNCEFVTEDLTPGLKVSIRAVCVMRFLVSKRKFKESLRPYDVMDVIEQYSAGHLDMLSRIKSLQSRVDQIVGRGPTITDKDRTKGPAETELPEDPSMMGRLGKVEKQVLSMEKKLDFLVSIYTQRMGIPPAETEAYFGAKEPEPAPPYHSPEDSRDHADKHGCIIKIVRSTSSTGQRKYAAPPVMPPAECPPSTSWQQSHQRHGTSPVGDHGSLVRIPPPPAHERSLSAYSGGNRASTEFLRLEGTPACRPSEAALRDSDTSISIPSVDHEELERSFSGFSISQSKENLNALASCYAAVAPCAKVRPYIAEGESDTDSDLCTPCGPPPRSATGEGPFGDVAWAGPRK
KCNQ2 pot baseline: second read-out of KCNQ2 pot, no call of its own (marks repeat the call); B-score; compound at 10 µM; measured here: initial fluorescence intensity artifact check;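 brightness before thallium and not channel activity; 0 = typical well and far values either way flag optical interference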
* marks the source's active call; other numbers are inactive results. Not all compounds are listed. The share of hits here may be higher or lower than overall.

SMILES | KCNQ2 pot | KCNQ2 pot baseline
COc1ccccc1NC(=O)c1ccc(-c2ccccc2F)o1 | 1.84 | -0.5
CC(/C=C/c1ccc(C)o1)=C\C(=O)O | 2.54 | 0.16
c1ccc(-n2cnc3ccccc32)nc1 | 0.7 | 2.23
Cc1ccc2nc(Nc3ccccc3)c(C=O)c(=O)n2c1 | 0.63 | -1.67
Nn1c(SCC(=O)Nc2ccc(S(=O)(=O)N3CCCC3)cc2)nnc1C(F)(F)F | 0.45 | -0.57
Cc1nn(CC(=O)N/N=C/c2cccs2)c(C)c1[N+](=O)[O-] | 0.03 | 0.89
COc1cc(SC)ccc1C(=O)N1CCN(c2ccc(O)cc2)CC1 | 0.67 | -1.94
Cc1ccc(C(=O)OCC(=O)Nc2ccccc2)cc1NC(=O)c1ccco1 | 0.37 | -0.22
CCN(CC)C(=O)c1[nH]cnc1C(=O)N[C@@H](C)C(=O)OCc1ccccc1 | 0.51 | -0.11
CCN(CC)c1ccc(N=Cc2cc(Br)ccc2O)cc1 | 0.59 | 0.69
O=C(CN1C(=O)NC2(CCCC2)C1=O)Nc1ccc(F)cc1 | 0.76 | -0.45
CCOc1ccccc1NC(=O)c1cc(S(=O)(=O)N2CCN(CC)CC2)ccc1Cl | 2.03 | 0.74
O=C(c1cccc(-n2cnnn2)c1)N1CC=C(c2ccccc2)CC1 | 0.31 | -0.8
NC(=O)C(c1ccccc1)c1ncc(C(F)(F)F)cc1Cl (stereo not given) | 3.07 | 0
Cc1ccc(CNC(=O)Cn2nnc(C(=O)Nc3ccc(Br)cc3)c2N)cc1 | 1.29 | 0.46
Cn1c(=O)[nH]c2cc3ccccc3cc21 | 0.26 | 0.13
CN(C)CCOCCSc1ccc(Cl)cc1 | 0.66 | -0.17
O=C(NC(=S)NC(=O)c1ccccc1F)c1ccccc1F | 0.15 | -0.01
Cc1ccc(-n2c(Cn3ncc4ccccc4c3=O)n[nH]c2=S)cc1 | 0.16 | -0.15
COc1ccc(C)cc1S(=O)(=O)NCc1cccs1 | 1.01 | -1.28
O=C(NC(=O)c1ccc(Cl)cc1)OC1CCCCC1 | 1.46 | -1.57
Cc1ccc(N2CC(C(=O)N3CCC(C(=O)Nc4nncs4)CC3)CC2=O)cc1 (stereo not given) | 0.08 | -1.62
N/C(=N\O)c1ccc(N2CCN(c3ncccc3C(F)(F)F)CC2)nc1 | 0.04 | 0.07
CC(=O)Nc1ccc2nc(CN3CCN(CC=C(C)C)C(CCO)C3)ccc2c1 (stereo not given) | 0.11 | -0.01
COc1ccc(C(=O)NCCc2ccc(S(N)(=O)=O)cc2)cc1OC | 1.91 | 1.7
CCCN1C(=O)/C(=C/c2ccc3c(c2)OCO3)NC1=S | 0.87 | 1.88
O=C(CCNC(=O)C1CCN(S(=O)(=O)c2ccccc2)CC1)NCc1ccccc1Cl | 0.04 | -0.01
Clc1ccc(COc2ccccc2CNCc2cccnc2)cc1 | 0.38 | -0.93
CCOC(=O)c1c(NC(C)=O)sc(/C(C)=N/Nc2ccc(C(=O)O)cc2)c1C | 0.79 | 0.89
O=C(/C=C/c1c(Cl)cccc1Cl)Nc1ccncc1 | 0.49 | -0.73
COc1ccc(/C=N/NS(=O)(=O)c2ccccc2)cc1OS(=O)(=O)c1ccccc1 | 0.41 | -1.26
COc1ccc(NC(=O)C2CCN(S(C)(=O)=O)CC2)cc1 | 0.02 | -0.24
COc1ccc(C2Nc3ccccc3C(=O)N2NC(=O)c2ccccc2)cc1OC (stereo not given) | 1.39 | 0.83
Cc1ccc(-n2nnnc2-c2cccnc2)cc1 | 0.79 | -0.58
C=CCn1c(SCC(=O)N2CCOCC2)nc(O)c(Cc2ccccc2)c1=O | 0.4 | 0.43
CC(=O)Nc1ccc(-c2cc(NC(C)=O)n(-c3ccccc3)n2)cc1 | 0.44 | 1.44
Cc1ccc(SCc2ccc(C(=O)N3CCCCC3)cc2)cc1 | 0.83 | 0
Cc1cccc(N(CC(=O)NCc2ccco2)C(=O)CCC(=O)Nc2ccccn2)c1C | 0.67 | -1.31
S=C(NCCc1cccc(Cl)c1)NCc1ccccc1 | 7.49* | -1.07*
COc1ccc(S(=O)(=O)CCC(=O)NCCc2ccc(C)cc2)cc1 | 0.35 | -0.5
CN=C(Nc1cccc(Cl)c1)SC1CC(=O)N(c2ccc(OC)cc2)C1=O (stereo not given) | 0.87 | -0.85
O=C(COC(=O)c1ccc2c(c1)OCCO2)NCc1ccccc1 | 0.94 | -0.19
COC(C[C@@H](O)C[C@H](O)COCc1ccccc1)OC | 0.21 | 0.75
O=C(NCc1ccc2c(c1)OCO2)C1CCN(S(=O)(=O)N2CCOCC2)CC1 | 0.31 | -0.49
CCOC(=O)CN1C(=O)N[C@@H](CCc2ccccc2)C(C(=O)OC)=C1C | 1.45 | 0.18
Cc1cccc(NC(=O)c2cccc(NC(=O)c3ccccc3)c2)n1 | 1.31 | -3.79
Nc1c(C(=O)NCc2ccccc2)sc2nc3c(cc12)C(=O)CCC3 | 0.68 | 0.59
COc1ccc(NC(=S)Nc2ccc(F)cc2)cc1 | 0.55 | 0.92
CCOc1ccc(-c2[nH]ncc2-c2csc(C)n2)c(O)c1 | 1.21 | -1.16
Cc1[nH]n(-c2ccccc2)c(=O)c1N=Nc1ccc(C(N)=O)cc1 | 0.4 | -2

(further entries)
SMILES | KCNQ2 pot | KCNQ2 pot baseline
Cc1ccc(S(=O)(=O)N2CCN(C(=O)CN3CCCCC3)C2C(C)C)cc1 (stereo not given) | 0.26 | 0.52
CCC1=C(OC(=O)N(CC)CC)N2C(=O)OC(=NCC3CC3)[C@]2(C)[C@H]2C1=CC[C@H]1C(=O)NC(=O)[C@H]12 | 1.6 | 0.32
CCN(CC)S(=O)(=O)c1ccc(N2CCOCC2)c(NC(=O)C2CSC3(C)CCC(=O)N23)c1 (stereo not given) | 0.88 | -1.99
Cc1nn(-c2ccccc2)c(Cl)c1/C=N/NC(=O)c1nn(C)cc1[N+](=O)[O-] | 0.81 | 0.05
CC1=NN(C(N)=S)C(=O)C1N=Nc1cccc(Cl)c1 (stereo not given) | 0.21 | -1.24
CC(C)OCCCNC(=O)COCC(=O)Nc1ccc(OCCc2ccccc2)cc1 | 1.09 | 0.89
CCc1ccc(NC(=S)N2CCN(c3cccc(OC)c3)CC2)cc1 | 0.23 | 1.52
COc1ccc(C2/C(=C(/O)c3ccc4c(c3)CC(C)O4)C(=O)C(=O)N2Cc2cccnc2)cc1 (stereo not given) | 0.72 | 0.03
CCN1C(=O)[C@@H]2[C@@H](c3ccc(-c4ccc(OC)cc4)cc3)N3CCCC[C@@]3(C(=O)OC)[C@@H]2C1=O | 0.03 | 0.18
O=C1N/C(=N/c2ccccn2)SC1Cc1ccccc1 (stereo not given) | 0.03 | -0.39
O=C(O)c1cccc(Nc2cc(Cl)c3nonc3c2[N+](=O)[O-])c1 | 1.46 | -1.16
CN(C)CCN1C(=O)c2oc3ccccc3c(=O)c2C1c1ccc(F)cc1 (stereo not given) | 0.77 | 0.09
Cc1ccccc1NC(=O)CSc1ccc2nnc(-c3ccccn3)n2n1 | 1.29 | 3.69
Cc1ccc(S(=O)(=O)c2nc(Nc3nccs3)sc2Cl)cc1 | 0.86 | -0.32
Cn1c(NC(=O)c2ccco2)c(-c2ccccc2Cl)c(=O)c2ccccc21 | 1.1 | -1.99
CN(c1ccccc1C(=O)Nc1cccc(Cl)c1Cl)S(C)(=O)=O | 0.03 | 1.95
CCOC(=O)/C(C#N)=C1/C=CN(Cc2ccccc2)C=N1 | 0.63 | 1.01
Cc1cccc(Nc2nc3c(S(=O)(=O)c4ccccc4)nnn3c3ccccc23)c1C | 1.21 | -0.13
CN(C)CCCOC(=O)N1c2ccccc2C=Cc2ccccc21 | 0.08 | -1.79
Cc1cc(=O)[nH]c(SCC(=O)Nc2nc3c(s2)CCCC3)n1 | 0.47 | 0.85
N#Cc1cnn(-c2cccc(Cl)c2)c1-n1cccc1 | 0.75 | -1.38
COc1ccccc1C(=O)Nc1ccc(N2CCN(C(C)=O)CC2)cc1 | 0.01 | -0.75
CC1C(c2ccccc2)C(C#N)(C#N)C2(C#N)C(=O)NC1(N)C2C (stereo not given) | 0.85 | 0.21
CCOC(=O)Nc1ccc2c(c1)N(C(=O)CCN(CC)CC)c1ccccc1CC2 | 0.59 | -2.59
CC(=O)NCCNC(=O)c1cccc(NS(=O)(=O)c2ccc3c(c2)OCCO3)c1 | 0.74 | -0.21
CC1CCCCC1N1CCN(C(=O)c2cccc(F)c2)CC1 (stereo not given) | 0.03 | 1.72
Cc1ccc(NC(=O)N/C=C/c2ccc(Cl)cc2)cc1 | 1.05 | -0.27
CCOc1ccc(CNC(=O)CCCN2C(=O)C(c3ccccc3)Oc3cccnc32)cc1 (stereo not given) | 0.2 | 0.05
CSc1ccc(C2CC(=O)Nc3c2c(=O)n(C)c(=O)n3C)cc1 (stereo not given) | 0.17 | -2.16
CCCC(=O)N(CCN(C(=O)CCC)c1ccccc1)c1ccccc1 | 1.69 | -0.4
COc1ccc(CC(=O)NNS(=O)(=O)c2ccccc2[N+](=O)[O-])cc1 | 0.41 | 0.16
CCc1cc(C(=O)O)c(NC(=O)c2cc(OC)c(OC)c(OC)c2)s1 | 0.63 | 1.23
COc1cc(C2c3c([nH]c(=O)[nH]c3=O)Nc3ccc4ccccc4c32)ccc1O (stereo not given) | 0.43 | 3.09
CC(C)c1ccc(NC2=CC(=O)CC(C)(C)C2)cc1 | 1.52 | -0.03
O=C(NNC1=C(C(=O)C(F)(F)F)CCC1)c1ccc(Cl)cc1 | 7.78* | -1.14*
O=C1CCC(C(=O)OCc2c(Cl)cccc2Cl)N1 (stereo not given) | 1.76 | 2.45
O=C(COC(=O)c1ccc(F)c(S(=O)(=O)N2CCOCC2)c1)NCc1ccco1 | 0.41 | -1.12
COc1ccccc1N1C(=O)c2ccc(C(=O)Nc3ccccc3O)cc2C1=O | 0.31 | 0.8
O=C(COc1ccc2cc(Br)ccc2c1Br)N1CCOCC1 | 9.51* | 2.05*
CCOc1ccc2[nH]c(C)c(CN3CCN(CC)CC3)c(=O)c2c1 | 2.22 | 0.08
CCOCCCNc1ncc2c(n1)CC(c1ccc(C)cc1)CC2=O (stereo not given) | 1.68 | 0.5
O=C(NCN1C(=O)C2C3C=CC(C3)C2C1=O)Nc1ccccc1O (stereo not given) | 0.03 | -0.77
COc1ccc(-c2nonc2NC(=O)c2ccco2)cc1OC | 0.66 | 0.67
Nc1nc2n(n1)C(c1ccco1)CC(c1ccccc1)N2 (stereo not given) | 1.19 | 0.7
COc1cc(-c2nnc(COC(=O)c3cc(C)no3)o2)cc(OC)c1OC | 1.01 | -0.36
CCC(CC)Nc1ccc(C(CC(N)=O)NC(=O)c2ccccc2)cc1[N+](=O)[O-] (stereo not given) | 0.37 | -0.12
CCOC(=O)CC1=C(C(=O)OCC)C(c2cccnc2)C(C#N)=C(N)O1 (stereo not given) | 0.06 | -0.7
OCc1nc2c(ccc3ccccc32)[nH]1 | 0.72 | 0.44
COC(=O)c1ccc(C(=O)OC)c(NC(=O)c2cnc3n(c2=O)CCS3)c1 | 0.75 | -0.84
Cc1ccc(NC(=O)c2ccc(OCC3CCCO3)cc2)nc1 (stereo not given) | 1.94 | -1.45

Other compounds:
SMILES | KCNQ2 pot | KCNQ2 pot baseline
O=C(NC(=S)N1CCN(c2nc(-c3ccccc3)cs2)CC1)c1cncc(Br)c1 | 16.7* | 1.48*
Cc1onc(-c2c(Cl)cccc2Cl)c1C(=O)NCc1ccc(S(N)(=O)=O)cc1 | 0.46 | -0.39
C[C@@H](Nc1nc(-c2ccccc2)nc2c1oc1ccccc12)C(=O)O | 0.69 | -0.72
CCCc1cc(-c2[nH]ncc2-c2ccc(C(=O)OCC)o2)c(O)cc1O | 1.2 | 0.04
CCOC(=O)c1[nH]c(C)c(C(=O)Nc2ccc(C)c(Cl)c2)c1C | 1.31 | -0.39
CCC(c1nnc(SCC(=O)Nc2cc(Cl)ccc2C#N)n1C1CCCCC1)N(C)C (stereo not given) | 0.09 | -0.06
O=C(c1ccco1)N1CCc2[nH]nc(-c3ccccc3)c2C1 | 2.63 | -1.22
CC1CN(c2c3c(nc4ncnn24)CCCC3)CC(C)O1 (stereo not given) | 0.28 | -1.47
Cc1ccc(NC(=O)CSc2nnnn2C)cc1S(=O)(=O)N(C)C | 0.19 | 0.08
CSc1nc2ccccc2n1Cc1cccc([N+](=O)[O-])c1 | 0.03 | -0.45
COc1ccc(NS(=O)(=O)c2ccc(NS(=O)(=O)c3cccs3)cc2)c(OC)c1 | 0.82 | -0.33
Cc1ccc(NC2CCCN(C(=O)CCN3CCOCC3)C2)cc1C (stereo not given) | 0.06 | -0.14
CCOC(=O)c1cccc(NC(=O)CSc2nnc(C3CCCCC3)n2C)c1 | 0.4 | 0.69
COc1ccccc1-n1c(N)cc(=O)nc1SCC(=O)Nc1cc(C)on1 | 1.88 | 1.97

Part of the list above in order of count of non-hydrogen atoms, ascending.
SMILES | KCNQ2 pot | KCNQ2 pot baseline
O=C(c1ccco1)N1CCc2[nH]nc(-c3ccccc3)c2C1 | 2.63 | -1.22
CCCc1cc(-c2[nH]ncc2-c2ccc(C(=O)OCC)o2)c(O)cc1O | 1.2 | 0.04
COc1ccccc1-n1c(N)cc(=O)nc1SCC(=O)Nc1cc(C)on1 | 1.88 | 1.97
Cc1onc(-c2c(Cl)cccc2Cl)c1C(=O)NCc1ccc(S(N)(=O)=O)cc1 | 0.46 | -0.39
O=C(NC(=S)N1CCN(c2nc(-c3ccccc3)cs2)CC1)c1cncc(Br)c1 | 16.7* | 1.48*
CCC(c1nnc(SCC(=O)Nc2cc(Cl)ccc2C#N)n1C1CCCCC1)N(C)C (stereo not given) | 0.09 | -0.06

Some of these compounds in order of their number in KCNQ2 pot baseline, highest first:
SMILES	KCNQ2 pot baseline
CCC(c1nnc(SCC(=O)Nc2cc(Cl)ccc2C#N)n1C1CCCCC1)N(C)C (stereo not given)	-0.06
Cc1ccc(S(=O)(=O)c2nc(Nc3nccs3)sc2Cl)cc1	-0.32
C[C@@H](Nc1nc(-c2ccccc2)nc2c1oc1ccccc12)C(=O)O	-0.72
